# Source: PubChem BioAssay
# PrP 5UTR inh: inhibition of PrP 5' UTR reporter expression | inhibition, % (no concentration beside the values) | 0.35% of 340,000 active | cell-based PrP 5' UTR mRNA reporter, plate reader;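 active = every replicate at 50% or more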;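 note: 0 = median of the neutral control wells; tested in H4 reporter cells; numbers are from one replicate; inactives centre near -14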
# Mtb hypoxia rep: PubChem AID 1159583. fluorescence inhibition, % (no concentration beside the values). 0.1% of 300,000 active. M. tuberculosis hypoxia-regulated fluorescent reporter, fluorescence;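 active = 35 to 45% if threefold the growth effect, above 45% if 1.5-fold the growth effect; inactive = the rest, general growth blockers included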;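 note: wells of about 50 µL received 100 nL stock; 0% = vehicle wells and 100% = reference inhibitor wells; whole bacteria with a GFP reporter of the hypoxia response; strong numbers were not always called active; many hits fall short of the cut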
# Sa ugtP lethal: growth inhibition of ugtP-null S. aureus, primary screen, RN4220 ugtP deletion, OD600; growth inhibition, % (test concentration not listed); 16 h; some inactives read as strong as hits; 0.54% of 330,000 active;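 active = z-score under -3 and OD600 up to 0.15 on both plates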;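 note: plate controls were untreated wells for no effect and antibiotic for full effect; wells of about 80 µL received 100 nL stock; the first replicate is given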
# Autofluor counter: compound fluorescence in toxin protease inhibitor counterscreen; AID 624483; fluorescence intensity (test concentration not listed); compound autofluorescence counterscreen, microsphere flow cytometry; hits give high values; 3.1% of 360,000 active;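 active = at least 3 SD above the mean of all compounds, about 16000 in these data; inconclusive = too few beads counted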;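 note: 100 nL of 1 mM stock went into each well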
# BJeLR lethal: MLPCN primary cell-based screen for lethality selective to Ras in HRASV12 cells | BJeLR (HRASV12) viability, CellTiter-Glo ATP luminescence, 48 h; reference of the scale not given here | inhibition, % (concentration not given with the values) | 0.17% of 300,000 active;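 active = replicate mean above 50%; inconclusive = above 50% but judged a plate artefact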;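 note: 50 nL library stock added to about 25 µL; numbers are from one replicate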
# Sa RN4220 lethal: growth inhibition of S. aureus RN4220, primary screen, OD600; 16 h; inhibition, % (no concentration beside the values); 0.33% of 330,000 active;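 active = z-score of -3 or lower and OD600 up to 0.18 on both plates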;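 note: plate controls were untreated cells for no effect and reference antibiotic for full effect; stock transfer was 100 nL into about 80 µL; one replicate is shown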
# Mtb hypoxia rep growth: second read-out of Mtb hypoxia rep, no call of its own (marks repeat the call); growth inhibition, %; measured here: M. tuberculosis growth (absorbance);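 0% = vehicle and 100% = reference antibiotic; read after six days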
# Numbers without * were called inactive; ? = inconclusive; . = not tested or not shown.
SMILES,PrP 5UTR inh,Mtb hypoxia rep,Mtb hypoxia rep growth,Sa ugtP lethal,Autofluor counter,BJeLR lethal,Sa RN4220 lethal
Cc1cc(C)c(N=C2C(=O)Nc3ccccc32)c(C)c1,-19,-5,-12,-4,3211,2,-3.7
OCC(O)/C=N/Nc1nc2ccccc2s1 (stereo not given),-14,.,.,.,2629,-8,.
CCC(C)[C@H](N)c1nnc(SCC(=O)c2ccc(Cl)cc2)o1 (stereo not given in full),2,-3,-1,-3,19418*,-4,2.7
CC[C@]12c3[nH]c4ccc(Cl)cc4c3CCN1C(=O)[C@@H](CC(=O)NC/C=C(\C)CCC=C(C)C)C[C@@H]2C(=O)N1CCN(C(=O)C2CC2)CC1,-17,0,11,-19,3527,.,-9.3
COc1ccc(N2C(=O)CSC23C(=O)Nc2ccccc23)cc1OC (stereo not given),-32,1,7,2,9566,-1,5.6
O=C(CN1CCN(c2ccccn2)CC1)Nc1ccccc1,6,.,.,-2,2219,3,-0.2
CSc1ccccc1NC(=O)c1cc(-c2cccs2)on1,-67,3,12,1,24196*,-9,1.7
Cc1noc(C)c1S(=O)(=O)N1CCC(C(=O)NCCN2CCC(C)CC2)CC1,-8,.,.,1,5174,2,0.7
COCc1cc(C)c2c(N)c(C#N)sc2n1,-8,.,.,-2,3050,3,0.7
CC1CC(C(O)c2ccccn2)C(=O)C(C(O)c2ccccn2)C1 (stereo not given),-10,14,6,3,4406,.,3.6
Cc1ccc(OCCOCCN2CCN(C)CC2)c(C(C)(C)C)c1,-12,21,18,7,4137,-3,1.6
CCOc1ncccc1C(=O)N(C)CC(=O)Nc1ccc(F)cc1,-13,13,2,10,2629,12,4.1
O=C(OCc1c(-c2ccccc2)ncc2ccccc12)c1cccc(Br)c1,-6,19,3,18,3803,.,16
CS(=O)(=O)N(CC(=O)NCCSCc1ccccc1)c1ccccc1F,-18,-4,0,0,4761,1,6.2
Cc1c(C(=O)O)cccc1-c1ccc(C=O)o1,-16,11,10,2,2429,6,4.5
O=C(CCSCCC(=O)NCc1ccccc1)NCc1ccccc1,-17,4,7,0,12259,-1,2.7
COC(=O)C1=NNC2C(=O)N(c3ccc(C)cc3)C(=O)C12 (stereo not given),-21,11,6,3,4475,-1,7.8
CCOC(=O)C1CCN(C(=O)CC(NS(=O)(=O)c2ccc(OC)cc2)C(C)C)CC1 (stereo not given),-13,.,.,-3,2526,-4,2.7
O=C(NNC(=O)c1cc2ccccc2o1)c1ccc(Cl)cc1,-5,14,10,14,3919,-5,7.4
FC(F)(F)c1ccc(Oc2ccc3cc(Br)ccc3c2)nc1,2,-11,2,29,2112,2,0.0
O=C(c1ccc(Br)cc1)N1CCN(c2ncccn2)CC1,-38,11,6,3,5289,0,1.4
COc1ccc(C(=O)NC2CCN(C(=O)NC3CCCCC3)CC2)cc1,-10,5,1,7,3876,-2,1.7
CCCCC1CNC(=O)C(=O)N1CCCc1cc(OC)c(OC)c(OC)c1 (stereo not given),.,9,3,-1,.,.,3.4
O=[N+]([O-])c1cc(/C=N/O)ccc1N1CCCC1,-2,.,.,.,2392,1,.
Cc1ccc(C=NNC(=O)c2cc(-c3ccccc3)nc3ccccc23)o1,.,5,6,2,.,.,1.0
# Next section
SMILES,PrP 5UTR inh,Mtb hypoxia rep,Mtb hypoxia rep growth,Sa ugtP lethal,Autofluor counter,BJeLR lethal,Sa RN4220 lethal
O=C(NCc1n[nH]c(=S)n1-c1ccc([N+](=O)[O-])cc1)c1ccc(S(=O)(=O)N2CCOCC2)cc1,-7,0,-2,8,2031,-5,-1.9
Cc1ccc(OCC(O)CN2C(=O)NC(C)(C)C2=O)c(C)c1 (stereo not given),-9,-5,11,-1,1991,6,2.7
Cc1ccc(NC(=O)CCc2nnc3ccc(NCc4ccco4)nn23)cc1,-29,10,16,6,5283,-6,-2.9
COc1cccc(NC(=S)N(CCc2ccc(OC)c(OC)c2)Cc2ccccn2)c1,48,5,11,1,3072,0,0.4
COc1ccc(N2CCN(Cc3cc(=O)oc4cc(C)c(Cl)c(C)c34)CC2)cc1,12,.,.,3,4614,-4,3.7
COC(=O)c1c(-c2ccc(OC)cc2)sc2ccc(OC)cc12,-17,8,15,91*,4254,.,0.2
O=C(NCc1nc2ccccc2[nH]1)C1=C[C@H](c2ccc3c(c2)OCO3)C[C@H](OCCCCO)O1,3,.,.,.,2974,-13,.
CCCCC(C(=O)NC1CCCC1)N(Cc1ccccc1)C(=O)c1snc(C(N)=O)c1N (stereo not given),-16,13,11,7,3040,6,3.0
CCOC(=O)CC12CN3CN(C1)CC(CC(=O)OCC)(C3)C2=O,0,11,9,5,4367,-2,4.1
COc1ccc(NC(=O)CC2C(=O)Nc3ccccc3N2CC(=O)N2CCCC2)cc1 (stereo not given),-14,9,4,2,8491,.,1.7
Cc1ccc(/C=C2\SC(=S)N(C3CCS(=O)(=O)C3)C2=O)cc1 (stereo not given),-2,-1,12,5,3047,-4,3.2
CSc1nnc(-c2sc3cc(Cl)ccc3c2Cl)n1C,-32,14,6,-1,3597,-22,3.3
COC(=O)C(Cc1ccccc1)NC(=O)CNC(=O)c1ccc(Br)cc1 (stereo not given),-36,-2,-3,3,4505,4,1.6
O=C1NCC(c2ccccc2)C1C(=O)N/N=C/c1ccc(Cl)s1 (stereo not given),-15,.,.,.,4597,-3,.
Cn1nnnc1N=NC(=NNc1ccccc1)c1ccccc1,.,18,10,-11,.,.,1.6
Cc1ccc(NC(=S)NCCSc2ccc(Cl)cc2)cc1,1,5,19,4,4408,-9,-2.6
O=C(NCc1cccs1)c1cccnc1SCCS(=O)(=O)c1ccc(C(F)(F)F)cn1,.,6,5,6,.,0,-0.2
CCCc1nnc(NC(=O)c2cn(CC)c3cc(N4CCN(C)CC4)c(F)cc3c2=O)s1,.,19,12,28,3982,1,3.8
COc1c(C(=O)Nc2ccc3[nH]c(=O)[nH]c3c2)cc2ccccc2c1Br,9,1,-6,8,3536,-2,3.8
ON=Cc1ccc(-c2ccccc2)o1,.,1,3,36,.,.,11
CSc1sc(-c2nnc(SCC(=O)Nc3ccccc3)n2C)c2c1C=CCC2,.,-3,-10,5,3520,-2,2.5
COc1ccc(S(=O)(=O)N(CC(=O)NCC2CCCO2)Cc2ccccc2)cc1C (stereo not given),-21,1,-1,7,6719,0,4.1
CCOC(=O)c1sc(NC(=O)c2ccc(S(=O)(=O)N3CCOCC3)cc2)cc1C,-7,2,4,9,3543,0,-4.6
CCCc1ccc(-c2cc(NC(=O)CSc3n[nH]c(N)n3)n(-c3ccccc3)n2)cc1,-26,0,5,55,10494,-13,-2.9
O=C(OCc1nc2ccccc2s1)c1cccc(S(=O)(=O)N2CCOCC2)c1,-32,3,10,7,3427,-1,13

# Nothing new here: an excerpt of the list.
SMILES,PrP 5UTR inh,Mtb hypoxia rep,Mtb hypoxia rep growth,Sa ugtP lethal,Autofluor counter,BJeLR lethal,Sa RN4220 lethal
COc1c(C(=O)Nc2ccc3[nH]c(=O)[nH]c3c2)cc2ccccc2c1Br,9,1,-6,8,3536,-2,3.8
ON=Cc1ccc(-c2ccccc2)o1,.,1,3,36,.,.,11
CSc1sc(-c2nnc(SCC(=O)Nc3ccccc3)n2C)c2c1C=CCC2,.,-3,-10,5,3520,-2,2.5
COc1ccc(S(=O)(=O)N(CC(=O)NCC2CCCO2)Cc2ccccc2)cc1C (stereo not given),-21,1,-1,7,6719,0,4.1

# (next part)
SMILES,PrP 5UTR inh,Mtb hypoxia rep,Mtb hypoxia rep growth,Sa ugtP lethal,Autofluor counter,BJeLR lethal,Sa RN4220 lethal
Cc1c(C(=O)N2CCN(c3ccccn3)CC2)cccc1[N+](=O)[O-],-9,16,4,2,3097,2,-0.3
CCn1c2c(c3ccc(OC)cc31)CCCC2=O,-1,9,6,96*,3411,8,-0.9
Cc1ccc2cc(CN(CC3CCCO3)C(=S)NCc3ccco3)c(=O)[nH]c2c1 (stereo not given),-10,7,4,18,3655,-5,2.4
O=C(Cn1cc([N+](=O)[O-])ccc1=O)Nc1ccc2c(c1)OCO2,-10,9,2,6,3002,.,2.8
COc1cccc(NC(=O)NC2(C(=O)N3CCN(C)CC3)CCCCC2)c1,-32,3,-1,2,4012,-7,3.4
COc1ccc(CC(=O)NC2CC(C)(C)NC(C)(C)C2)cc1,-18,10,12,0,8960,-7,4.6
Cc1ccc(S(=O)(=O)NC(CC(C)C)C(=O)N2CCOCCOCCOCCOCC2)cc1 (stereo not given),-12,1,-7,1,2688,-2,5.2
Cc1csc(SC(C)C(=O)Nc2ccc(S(=O)(=O)N3CCCC3)cc2)n1 (stereo not given),3,9,7,-2,4448,-13,0.7
OCC#CC[N+]1(CC#Cc2ccccc2)CCOCC1,-32,15,-2,0,4864,-5,1.6
CCOC(=O)Nc1ccc2c(c1)N(CCCN(C)C)c1ccccc1CC2,0,9,8,10,?,3,0.1
Cc1ccccc1N1CCN(C(=S)c2ccc(-c3cccc([N+](=O)[O-])c3)o2)CC1,-1,10,7,0,3245,3,4.4
CCOCCCNC(=O)CCNS(=O)(=O)c1ccc(C)cc1,5,5,3,2,10779,3,-1.2
CC[n+]1ccccc1/C=C1\Sc2ccc(C)cc2N1C,-10,-5,13,100*,3305,19,27
CCOC(=O)COc1ccc2c(c1)C(=O)CC(C)(C)O2,-14,4,2,8,21356*,-10,1.9
O=C(N/N=C/C=C/c1ccc(Br)cc1)C(O)c1ccccc1 (stereo not given),-31,.,.,.,2472,-1,.
COc1ccc(CNC(=O)C(C)n2nc(C)c3c(C)n(-c4ccc(C)cc4)nc3c2=O)cc1 (stereo not given),-3,-4,3,1,5973,-2,1.3
CSCCC(NS(=O)(=O)c1ccc2c(c1)oc(=O)n2C)C(=O)NCc1cccs1 (stereo not given),-20,12,7,0,4969,3,4.0
O=C(N/N=C/c1ccccn1)c1cc(-c2ccc(Br)s2)[nH]n1,-19,.,.,.,4019,9,.
Cc1sc2ncnc(Nc3ccccc3)c2c1C,-10,10,6,3,3108,-11,10.0
Cc1nn(-c2ccccc2)c(C)c1C(=O)OCC(=O)NC(=O)NC1CCCCC1,-3,.,.,0,2281,-5,-3.0
Cc1cc(NC(=O)CSc2nnc(C)n2C)no1,-14,0,2,2,3909,-6,1.6
Cc1ccc(NC(=O)N2CCN(C(=O)c3ccco3)CC2)cc1Cl,-18,10,21,5,5688,8,-1.1
CCCC(=O)Nc1nc2nc(-c3ccccc3)cc(-c3ccccc3)n2n1,-13,12,9,12,6344,-14,6.4
CC(=O)Nc1ccc(S(=O)(=O)N(CC(=O)O)Cc2ccccc2)cc1,-9,2,9,-8,3178,-10,-7.6
CCC(=O)Nc1c(C#N)c2nc3ccccc3nc2n1-c1ccc(C)cc1,-1,5,4,6,6120,.,5.7

# 2 compounds drawn at random from those above:
SMILES,PrP 5UTR inh,Mtb hypoxia rep,Mtb hypoxia rep growth,Sa ugtP lethal,Autofluor counter,BJeLR lethal,Sa RN4220 lethal
O=C(Cn1cc([N+](=O)[O-])ccc1=O)Nc1ccc2c(c1)OCO2,-10,9,2,6,3002,.,2.8
CCOC(=O)COc1ccc2c(c1)C(=O)CC(C)(C)O2,-14,4,2,8,21356*,-10,1.9

# New compounds follow.
SMILES,PrP 5UTR inh,Mtb hypoxia rep,Mtb hypoxia rep growth,Sa ugtP lethal,Autofluor counter,BJeLR lethal,Sa RN4220 lethal
CCOC(=O)N1CCN(CC(=O)Nc2nnc(C(F)(F)F)s2)CC1,-16,-6,16,0,4676,-5,0.6
CCc1cc(=O)oc2cc(C)cc(OCC(=O)NCCc3c[nH]c4ccccc34)c12,-10,.,.,8,5579,7,3.3
CCOC(=O)c1ccccc1NC(=O)CC1SC(=NC)N(C)C1=O (stereo not given),-15,0,-15,6,3102,3,13
O=C(NCc1ccc(Cl)cc1)c1cccc(NC(=O)c2ccccc2)c1,-6,-4,3,-20,2169,-26,-1.5
CCOc1ccc(-n2c(C)cc(/C=N/NC(=O)C(N)=O)c2C)cc1,-15,.,.,.,4814,-11,.
C=CCNC(=S)Nc1cc(S(=O)(=O)N2CCOCC2)ccc1-n1cncn1,-18,7,3,1,1999,-1,2.0
O=C(NN=Cc1ccccn1)C12CC3CC(CC(C3)C1)C2,.,3,8,4,.,.,13
CC(C)(C)OC(=O)N1CCC[C@H]1C(=O)NN=Cc1ccc2nccnc2c1,.,18,-9,3,.,.,0.4
CS(=O)(=O)N(CC(=O)NCc1ccncc1)c1cc(Cl)cc(Cl)c1,-11,4,12,3,3717,-11,0.3
CCCn1c(SCC(=O)N2CCc3ccccc32)nnc1-c1ccco1,-5,.,.,7,4083,-1,2.8
Cc1ccc(C)c(SCC(=O)Nc2oc(C)c3c(C)n[nH]c(=O)c23)c1,-9,0,-8,-2,6148,6,1.0
